# Screening data as filed in PubChem.
# Mtb bLac sens = beta-lactam sensitization of Mtb H37Rv. M. tuberculosis H37Rv growth with meropenem, percent inhibition; hits of this screen are not shown here. inhibition, % at 25 µM. 330,000 tested, 0.27% active;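 active = about 74% or more and at least 40 points above the plate without the antibiotic, then above 30% in a dose series; inconclusive = first-round hits that could not be retested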;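 also: growth measured after seven days incubation then overnight dye step; 0% = bacteria only wells and 100% = bacteria with antibiotic; twin plates without the antibiotic show which effects depend on it; some results filed as inactive read as strong as hits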
# RecA intein inh = Mtb RecA intein splicing inhibition. cell-free RecA intein splicing, fluorescence. inhibition, %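 (about 9 µM by stock and volumes)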. 290,000 tested, 0.75% active; in the data active = inhibition above about 30%; inconclusive = no clear call, values can overlap the other calls;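 also: 0% = vehicle wells and 100% = reference inhibitor control wells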
# Target sequence (P9WHJ3 whole entry, looked up): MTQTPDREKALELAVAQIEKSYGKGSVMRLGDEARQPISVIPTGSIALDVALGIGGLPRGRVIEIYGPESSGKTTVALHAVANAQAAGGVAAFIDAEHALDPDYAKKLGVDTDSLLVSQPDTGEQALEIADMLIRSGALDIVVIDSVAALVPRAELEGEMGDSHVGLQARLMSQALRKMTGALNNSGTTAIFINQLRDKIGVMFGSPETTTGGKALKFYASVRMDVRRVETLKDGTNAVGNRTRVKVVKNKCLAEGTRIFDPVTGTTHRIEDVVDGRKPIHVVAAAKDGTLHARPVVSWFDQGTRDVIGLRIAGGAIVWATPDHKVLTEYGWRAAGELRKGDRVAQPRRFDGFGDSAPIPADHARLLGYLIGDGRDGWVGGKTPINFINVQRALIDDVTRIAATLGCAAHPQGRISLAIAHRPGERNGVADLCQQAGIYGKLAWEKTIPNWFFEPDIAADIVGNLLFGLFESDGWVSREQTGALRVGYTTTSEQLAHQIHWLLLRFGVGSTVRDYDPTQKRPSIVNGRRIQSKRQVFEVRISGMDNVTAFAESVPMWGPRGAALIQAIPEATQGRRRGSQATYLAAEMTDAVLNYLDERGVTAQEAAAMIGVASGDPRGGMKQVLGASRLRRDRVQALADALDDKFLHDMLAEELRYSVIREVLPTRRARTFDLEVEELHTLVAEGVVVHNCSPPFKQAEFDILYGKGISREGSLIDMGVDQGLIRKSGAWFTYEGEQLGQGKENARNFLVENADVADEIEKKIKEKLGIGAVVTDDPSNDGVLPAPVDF
# YopH PTP inh = inhibitors of Yersinia enterocolitica YopH tyrosine phosphatase. fluorescence Ex485/Em525. inhibition, %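 (about 10 µM by stock and volumes)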. 140,000 tested, 0.16% active;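 active = inhibition of 50% or more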;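 also: controls were vehicle for no effect and minimum signal wells for full effect; inactives centre near -20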
# Mtb H37Rv = M. tuberculosis H37Rv growth inhibitors, H37Rv strain (AID 1626); M. tuberculosis H37Rv growth inhibition; higher % means a stronger effect; one-dose inhibition, % at 10 µM; IC50 in µM for titrated hits; 220,000 tested, 0.95% active;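 active = confirmed in a dose series; inconclusive = inhibition above 80% but not taken into the dose series; inactive = below 80% or under 30% at every dose of the series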;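 also: bacteria incubated seven days before Alamar blue readout; 0% = bacteria only wells and 100% = bacteria with antibiotic wells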
# Arbovirus anti = blocks arbovirus infection. AID 1251. arbovirus infection cell-based antiviral screen. inhibition, % at 10 µM. 200,000 tested, 0.37% active;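 active = inhibition from about 30%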;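 also: bluetongue infection of BSR cells; cell survival read as ATP light after 72 h; 0% = infected wells without compound and 100% = uninfected wells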
# Arbovirus anti repeat = also measured in Arbovirus anti; calls as there; inhibition, %; measured here: 10K subset replicate screen; many hits read low in the repeat;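 first of two repeat runs on a subset; 0% = infected and 100% = uninfected wells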
# Starred values were filed as active, the others as inactive; ? = inconclusive; . = no result given.
SMILES,Mtb bLac sens,RecA intein inh,YopH PTP inh,Mtb H37Rv,Arbovirus anti,others
COc1cccc(N(CC(=O)Nc2cccnc2)S(C)(=O)=O)c1,3,3.9,.,-8%,4,
CN(C)S(=O)(=O)c1ccc(NC(=O)c2ccccn2)cc1,0,-0.5,-16,-2%,1,
COc1ccc(C/C(C)=N/NC(=S)Nc2ccc(C(C)C)cc2)cc1,-11,1.7,-3,7%,2,
COc1ccc(CC(=O)NC(C)CCc2ccccc2)cc1OC (stereo not drawn),-5,-0.4,.,.,.,
CC(C)c1ccc(N(C(=O)c2csnn2)C(C(=O)NC(C)(C)C)c2cccnc2)cc1 (stereo not drawn),3,-1.6,.,-8%,10,
O=C(NCc1ccc(Cl)cc1)C1CCCN(c2ncnc3c2nc2n3CCCCC2)C1 (stereo not drawn),9,0.3,.,.,.,
CC(C)(C)NC(=O)CSc1nccn1Cc1ccccc1,-2,9.8,-40,-12%,5,Arbovirus anti repeat=2
CC(=O)NNC(=O)CC(=O)Nc1nc(C23CC4CC(CC(C4)C2)C3)cs1,2,1.3,-11,10%,26,
COC(=O)C(Cc1c[nH]c2ccccc12)NC(=O)C1CC1 (stereo not drawn),5,-0.4,.,.,.,
N#CCc1cccnc1Sc1ccc(Cl)cc1,-3,1.4,.,.,.,
CC1(C)CC(=O)C2=C(C1)N(Cc1ccco1)C(=O)C2(NC(=O)C1CCCCC1)C(F)(F)F (stereo not drawn),-1,-1.6,-29,-6%,-12,
Cc1nn(C)c(C)c1/C=N/NC(=O)c1csc2ccccc12,2,5.9,-23,6%,-14,
Cc1ccc(Cn2c(N3CCN(CCO)CC3)nc3c2c(=O)n(C)c(=O)n3C)cc1,-1,0.6,.,.,.,
Cc1ccc2[nH]c3c(=O)n(CCN4CCNCC4)cnc3c2c1,2,-0.6,-5,-4%,0,
FC(F)(F)c1cc(Cl)c2nnc(C(F)(F)Cl)n2c1,9,-3.8,.,0%,9,
O=C(COC(=O)c1ccccc1NC(=O)c1ccco1)NCC1CCCCC1,-3,-3.9,-7,-1%,1,
COc1ccc(Cl)cc1NC(=O)/C=C/C(=O)O,-3,4.2,.,-12%,.,
Cc1cc(Cl)c(OCCOCCN2CCN(C)CC2)c(Br)c1,-2,-2.5,.,.,.,
CCCCCNC(=O)c1cn(CC)c2cc(N3CCN(C)CC3)c(F)cc2c1=O,2,0.8,.,.,.,
Cc1ccc(C(=O)Nc2nc3n(n2)C(c2ccccc2)CC(=O)N3)cc1 (stereo not drawn),-2,.,.,-9%,.,

# Part of the list above in order of heavy-atom count, smallest number first.
SMILES,Mtb bLac sens,RecA intein inh,YopH PTP inh,Mtb H37Rv,Arbovirus anti,others
COc1ccc(Cl)cc1NC(=O)/C=C/C(=O)O,-3,4.2,.,-12%,.,
FC(F)(F)c1cc(Cl)c2nnc(C(F)(F)Cl)n2c1,9,-3.8,.,0%,9,
Cc1nn(C)c(C)c1/C=N/NC(=O)c1csc2ccccc12,2,5.9,-23,6%,-14,

# (further entries)
SMILES,Mtb bLac sens,RecA intein inh,YopH PTP inh,Mtb H37Rv,Arbovirus anti,others
CCNc1nc(OC)nc(Oc2ccc(=O)n(-c3ccccc3)n2)n1,-1,1.5,-1,-3%,-2,
Cc1ccc(C)c(NC(=S)NNC(=O)c2csc(C(C)C)c2)c1,8,7.4,3,1%,-20,
COc1ccc(CCNS(=O)(=O)c2cn(C)nc2C)cc1OC,-4,-1.4,.,.,.,
Cc1ccc(SCCC(=O)Nc2cccnc2)cc1,-3,-2.7,.,-1%,6,
COc1ccccc1/C=N/NC(=O)c1ccc(Cn2nc([N+](=O)[O-])cc2C)cc1,-5,0.7,-18,-3%,1,
COC(=O)c1cc(C(=O)NCC2CCCCC2)cc([N+](=O)[O-])c1,56,-0.4,.,.,.,
O=C(Cn1c2ccc(F)cc2c2nc3n(c(=O)c21)CCS3)Nc1ccccc1F,-6,5.8,.,-9%,4,
Cc1ccc(-c2nn(Cc3ccccc3)cc2/C=C/C(=O)O)cc1C,6,1.3,-22,-5%,-2,
O=C(Nc1nnc(-c2ccncc2)o1)c1ccc(Br)s1,91,1.7,.,15µM*,-13,
O=C(/C=C1\SC(=O)NC1=O)Nc1ccc(F)cc1,2,-1.4,.,-4%,-2,
CCCCCCC(=O)N/N=C/c1c(O)n(CCCC)c(=S)[nH]c1=O,30,-11,.,3%,.,
O=C(NCCCN1CCN(c2ccccc2F)CC1)C1CCC(=O)N1C1CCCCC1 (stereo not drawn),-12,0.9,-37,0%,-3,
O=C(O)c1cccc(NC(=O)c2ccc(Cl)c(S(=O)(=O)N3CCCCCC3)c2)c1,10,0.0,.,-6%,2,
O=C(CCCO)CCCCCCCCC[C@H]1N[C@H](CO)[C@@H](O)[C@@H]1O,-3,-1.3,-1,-10%,-3,
CCC(=O)Nc1ccc(S(=O)(=O)NCC2CCCO2)cc1 (stereo not drawn),-10,1.3,-12,-13%,3,
CC1CC(CCN)(c2ccccc2)C(C)CN1C (stereo not drawn),-5,-2.0,.,-11%,.,
Cc1cc2[nH]cnc2c([N+](=O)[O-])c1C,1,1.4,.,1%,3,
CCOc1ccc(C(=O)Nc2cccc(-n3cnnn3)c2)cc1OCC,-2,-3.4,.,.,.,
O=C(Nc1ccncc1)c1ccc(NS(=O)(=O)c2ccc3[nH]c(=O)[nH]c3c2)cc1,-3,2.8,.,.,.,
Cc1cccc(-n2c(O)c(C)c(=O)[nH]c2=S)c1,.,.,.,3%,9,
O=C1C2C3C=CC(C2C(=O)N1C1CCCCC1)C1C(=O)N(C2CCCCC2)C(=O)C31 (stereo not drawn),1,3.0,-24,-6%,17,
CCN1CCN(C(=O)C(C)Nc2ccc(OC)cc2OC)CC1 (stereo not drawn),25,3.7,.,3%,5,
O=C(Nc1cccc(C(=O)O)c1)/C(=C/c1ccccc1)NC(=O)c1cccc(Br)c1,-8,0.3,.,.,.,
Cc1nc(C(=O)NNC(=O)c2ccc(Cl)cc2)cs1,50,1.0,.,12%,.,
CCCn1c(SCC(=O)Nc2cccc(S(=O)(=O)NC3=NCCCCC3)c2)nc2ccccc2c1=O,-8,-1.6,.,5%,0,
Cc1cc(NC(=O)Cn2cnc3c2c(=O)n(C)c(=O)n3C)n(-c2ccccc2)n1,-9,0.5,-26,-1%,0,
NC(=S)N(c1ccccc1)c1ccccc1,-7,-2.2,.,-1%,5,
Cc1cc2occ(CC(=O)N(C)CC(=O)Nc3c(C)cccc3C)c2cc1C,-6,-1.4,.,.,.,
Cc1cccc(NC(=O)c2cccc(S(=O)(=O)Nc3ccccc3C(=O)O)c2)c1,-1,2.8,.,.,.,
N#Cc1ccc(C23CC4(C2)[C@H](CN(Cc2ccc(C(F)(F)F)cc2)[C@@H]4c2ccccc2)C3c2ccccc2)cc1 (stereo partly drawn),-8,5.9,.,1%,.,
COc1cccc(NC(=O)CN2CC(c3ccccc3)CC2=O)c1 (stereo not drawn),2,1.9,-12,-17%,1,
O=C(CSc1nnnn1C1CCCC1)NCc1ccc2c(c1)OCO2,-3,-1.3,12,-6%,-5,
COC(=O)CC1C(=O)NCCN1C(=S)Nc1ccc(F)cc1 (stereo not drawn),-1,0.6,.,-4%,.,
CCOC(=O)C1=NN(C(=O)Nc2ccc(OC)cc2)C2C(=O)N(c3cccc(C(F)(F)F)c3)C(=O)C12 (stereo not drawn),-11,-0.1,-20,-14%,9,
CCSc1nc2cc(C(=O)OC)ccc2c(=O)n1CC,25,1.9,-16,41%,-1,
Cc1cc(NC(=O)Cn2cc([N+](=O)[O-])cn2)no1,-1,0.8,.,-3%,4,
COc1ccccc1Oc1ccc2c(c1)C(=O)N(c1ccc(O)cc1)C2=O,-7,.,-30,1%,3,
O=C(Nc1ccccc1)Nc1ccccc1Br,44,3.1,.,6%,22,
CC(C)c1nc(C#N)c(NCCCn2ccnc2)o1,4,5.1,-30,-16%,8,
Nc1ccc2oc(=O)c3ccccc3c2c1,-4,0.7,-43,.,1,
COc1ccc(-c2csc3ncnc(N4CCN(c5cccc(OC)c5)CC4)c23)cc1,?,17,.,.,.,
Cc1cc([N+](=O)[O-])cc2ncccc12,-7,-2.6,-7,.,-4,
CCOc1ccc(-n2c(SCC(=O)Nc3cc(C)on3)nnc2-c2c[nH]c3ccccc23)cc1,-4,0.3,-9,-5%,11,
CCCC(=O)N1CCN(c2ccc(NC(=O)c3ccc([N+](=O)[O-])o3)cc2)CC1,.,-0.1,.,1µM*,-32,
CN1CCN(C=Nc2nc3ccccc3nc2N2CCCC2)CC1,0,.,.,4%,-2,
Cc1ccc(C(=O)OCC(=O)c2c[nH]c3ccccc23)cc1NC(=O)c1ccco1,-6,-0.1,.,7%,0,
CCN(c1ccccc1)S(=O)(=O)c1ccc(Cl)c(NC(=O)COC(=O)c2ccc[nH]c2=O)c1,-2,0.2,.,0%,.,
CCOc1cc(S(=O)(=O)N(CC)CC)ccc1Cl,3,-1.2,.,2%,-3,
Cc1cc(C)nc(SC2c3cccc4cccc(c34)C2NS(=O)(=O)c2ccccc2)n1 (stereo not drawn),39,13,33,6%,10,
COCCNC(=O)Cn1nc(C(F)(F)F)cc1C,-3,.,-21,1%,2,
O=C(CNS(=O)(=O)c1ccc(Br)cc1Cl)OCC(=O)c1ccc[nH]1,-4,1.2,.,.,.,
Cc1nnc(SCC(=O)Nc2ccc(Cl)cn2)n1Cc1ccccc1,10,-1.3,-47,-15%,4,
CC(/C=C/c1ccco1)=N\NC(=O)CNc1ccc2ccccc2c1,99,3.1,.,.,-3,
Cc1cccc(N(CC(=O)N2CCCC2)S(=O)(=O)c2ccccc2)c1C,5,-1.4,4,-6%,1,Arbovirus anti repeat=3
CCn1c(SCC(=O)c2ccc(CNC(C)=O)o2)nnc1-c1cccs1,-9,5.1,-55,-7%,11,
CCc1cc2c(C)ccc(C)c2nc1SCC(=O)Nc1cc(C)on1,-2,-2.0,.,.,.,

# In the list so far, these contain a halogen.
SMILES,Mtb bLac sens,RecA intein inh,YopH PTP inh,Mtb H37Rv,Arbovirus anti,others
O=C(NCc1ccc(Cl)cc1)C1CCCN(c2ncnc3c2nc2n3CCCCC2)C1 (stereo not drawn),9,0.3,.,.,.,
N#CCc1cccnc1Sc1ccc(Cl)cc1,-3,1.4,.,.,.,
CC1(C)CC(=O)C2=C(C1)N(Cc1ccco1)C(=O)C2(NC(=O)C1CCCCC1)C(F)(F)F (stereo not drawn),-1,-1.6,-29,-6%,-12,
FC(F)(F)c1cc(Cl)c2nnc(C(F)(F)Cl)n2c1,9,-3.8,.,0%,9,
COc1ccc(Cl)cc1NC(=O)/C=C/C(=O)O,-3,4.2,.,-12%,.,
Cc1cc(Cl)c(OCCOCCN2CCN(C)CC2)c(Br)c1,-2,-2.5,.,.,.,
CCCCCNC(=O)c1cn(CC)c2cc(N3CCN(C)CC3)c(F)cc2c1=O,2,0.8,.,.,.,
O=C(Cn1c2ccc(F)cc2c2nc3n(c(=O)c21)CCS3)Nc1ccccc1F,-6,5.8,.,-9%,4,
O=C(Nc1nnc(-c2ccncc2)o1)c1ccc(Br)s1,91,1.7,.,15µM*,-13,
O=C(/C=C1\SC(=O)NC1=O)Nc1ccc(F)cc1,2,-1.4,.,-4%,-2,
O=C(NCCCN1CCN(c2ccccc2F)CC1)C1CCC(=O)N1C1CCCCC1 (stereo not drawn),-12,0.9,-37,0%,-3,
O=C(O)c1cccc(NC(=O)c2ccc(Cl)c(S(=O)(=O)N3CCCCCC3)c2)c1,10,0.0,.,-6%,2,
O=C(Nc1cccc(C(=O)O)c1)/C(=C/c1ccccc1)NC(=O)c1cccc(Br)c1,-8,0.3,.,.,.,
Cc1nc(C(=O)NNC(=O)c2ccc(Cl)cc2)cs1,50,1.0,.,12%,.,
N#Cc1ccc(C23CC4(C2)[C@H](CN(Cc2ccc(C(F)(F)F)cc2)[C@@H]4c2ccccc2)C3c2ccccc2)cc1 (stereo partly drawn),-8,5.9,.,1%,.,
COC(=O)CC1C(=O)NCCN1C(=S)Nc1ccc(F)cc1 (stereo not drawn),-1,0.6,.,-4%,.,
CCOC(=O)C1=NN(C(=O)Nc2ccc(OC)cc2)C2C(=O)N(c3cccc(C(F)(F)F)c3)C(=O)C12 (stereo not drawn),-11,-0.1,-20,-14%,9,
O=C(Nc1ccccc1)Nc1ccccc1Br,44,3.1,.,6%,22,
CCN(c1ccccc1)S(=O)(=O)c1ccc(Cl)c(NC(=O)COC(=O)c2ccc[nH]c2=O)c1,-2,0.2,.,0%,.,
CCOc1cc(S(=O)(=O)N(CC)CC)ccc1Cl,3,-1.2,.,2%,-3,
COCCNC(=O)Cn1nc(C(F)(F)F)cc1C,-3,.,-21,1%,2,
O=C(CNS(=O)(=O)c1ccc(Br)cc1Cl)OCC(=O)c1ccc[nH]1,-4,1.2,.,.,.,
Cc1nnc(SCC(=O)Nc2ccc(Cl)cn2)n1Cc1ccccc1,10,-1.3,-47,-15%,4,

# Some of the compounds tested (hit frequency here may not be typical).
